High-throughput results deposited in PubChem BioAssay by several laboratories.
MT1-MMP act inh: inhibitors of human MT1-MMP activation; P50281; HT1080 RFP-PRO-GFP cells, GFP/RFP ratio fluorescence, overnight; percent of plate control window, DMSO zero; GFP/RFP ratio change, % at 20 µM; 0.061% of 360,000 active;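 active = GFP/RFP ratio change of at least 30% with cell ATP level not reduced by more than half and red fluorescence within 50% of control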; also: strong numbers were not always called active
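Test system: HT1080 cells expressing an RFP-PRO-GFP fluorescent reporter construct / Compound dosing: single-point 20 µM compound, 1% DMSO / Schedule: cells overnight before dosing, compound overnight, 37 °C, 5% CO2 / Evaluation: GFP/RFP fluorescence ratio / Control set: DMSO and RFP-L50D-GFP cell wells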
CSC inhib: cancer stem cell inhibition; cancer stem cell-like cells viability, luminescence; inhibition, % at 7.5 µM; 1.1% of 300,000 active; AID 2717;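 active = mean at 75% or more and at least half the replicates too; inconclusive = mean and replicates disagree; tested in HMLE shEcad cells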;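 also: 0% = median of negative and 100% = median of positive control wells; the first replicate is given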
HIV Env fusion: HIV envelope-mediated fusion inhibition. HeLa-JRFL Env/CEM21 cell fusion, luciferase. inhibition, % at 12.3 µM. 1.1% of 360,000 active;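 active = mean replicate inhibition score of at least 50 and every replicate individually at or above 50; inconclusive = only one of the two criteria met; inactive = mean below 50 and not all replicates reaching 50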;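 also: 0% = plate neutral controls and 100% = maraviroc near 300 nM; one replicate is shown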
eIF4H inh: inhibitors of RNA binding by human eIF4H. eIF4H fluorescence polarization binding assay. inhibition, % at 35 µM. 0.94% of 290,000 active. AID 2012;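 active = 50% or more with normal probe brightness, or confirmed in later tests; inconclusive = above 50% with abnormal brightness, or retests that disagree; inactive = below 50% or failed in later tests; about a fifth of its hits are not listed in these tables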;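 also: calls also rest on retests at 20 µM and on dose response follow-up; 0% = protein and probe with vehicle and 100% = probe without protein; strong numbers were not always called active; many hits fall short of the cut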
PABP FP inh: PABP-poly(A) binding inhibition; PABP-poly(A) RNA binding, fluorescence polarization; 1% of 290,000 active; P11940; inhibition, % at 35 µM; AID 2014;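 active = 50% or more with normal probe brightness, or confirmed in later tests; inconclusive = above 50% with abnormal brightness, or retests that disagree; inactive = below 50% or failed in later tests; about a fifth of its hits are not listed in these tables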;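 also: calls also rest on retests at 20 µM and on dose response follow-up; controls were probe without protein and protein plus probe with vehicle; some compounds called inactive have numbers as strong as hits; many hits fall short of the cut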
Yeast UUG start: modulators of start codon recognition fidelity in yeast | 0.13% of 350,000 active | activity score, % at 18.7 µM | S. cerevisiae UUG-firefly luciferase reporter, luminescence/redox ratio | AID 602363;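 active = replicate mean at a twofold rise or more, about +100% in these data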;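 also: firefly luciferase made from a UUG start codon reports start codon fidelity; reporter light over untreated wells divided by growth signal over untreated wells; some hits fall short of that in this replicate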
Rce1 inhib: yeast Ras-converting enzyme inhibition; calls only; yeast membranes, quenched prenylated peptide cleavage fluorescence; 0.27% of 290,000 active;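 active = fall in fluorescence gain of 50% or more versus controls, with final raw signal at or below 3038400; inconclusive = same 50% fall but final raw signal above 3038400; inactive = fall in fluorescence gain under 50%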;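 also: plate controls were neutral control wells for no effect and wells lacking membranes for full effect; tested at 10 µM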
Target sequence (Q03530 whole entry, looked up): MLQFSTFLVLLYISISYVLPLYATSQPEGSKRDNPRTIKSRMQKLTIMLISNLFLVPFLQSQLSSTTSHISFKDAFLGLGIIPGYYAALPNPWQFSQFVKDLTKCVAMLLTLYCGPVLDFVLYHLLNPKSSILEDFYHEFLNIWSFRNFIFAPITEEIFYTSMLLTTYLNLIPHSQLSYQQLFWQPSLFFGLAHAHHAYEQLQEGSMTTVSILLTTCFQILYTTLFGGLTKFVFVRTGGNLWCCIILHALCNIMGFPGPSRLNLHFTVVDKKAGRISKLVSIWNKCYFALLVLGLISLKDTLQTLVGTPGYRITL
eIF4H inh retest: recorded beside eIF4H inh, whose call it bears; inhibition, %; compound at 20 µM; confirmation average;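 mean of two retest wells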
PABP FP inh retest: also measured in PABP FP inh; calls as there; inhibition, %; compound at 20 µM; confirmation repeats;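 mean of two retest wells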
MT1-MMP act inh RFP: also measured in MT1-MMP act inh; calls as there; RFP signal change, %; measured here: RFP expression control read;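 0 = vehicle wells; hits needed this value within 50% of zero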
* hit, by the source's call; i = inactive; ? = inconclusive; . = no result given. An excerpt. The share of hits here may be higher or lower than overall.

SMILES | MT1-MMP act inh | MT1-MMP act inh RFP | CSC inhib | HIV Env fusion | eIF4H inh | PABP FP inh | Yeast UUG start | Rce1 inhib | others
COc1ccc(C(=O)NC2CC2)cc1OC1CCN(Cc2ccc(F)c(F)c2)CC1 | -1 | 5 | -4 | 8 | -15 | 0 | -9 | i
COc1ccccc1N1CCN(C(=O)C2CCCN(S(=O)(=O)c3ccc4c(c3)CCCN4C(C)=O)C2)CC1 (centres undefined) | -6 | -26 | -2 | 13 | 0 | -8 | 11 | i
CN1C(=O)Cc2cc(S(=O)(=O)N3CCN(c4ccccc4F)CC3)ccc21 | 0 | -2 | 5 | 2 | -9 | 11 | -20 | i
CC(C)N(C(=O)COC(=O)c1ccccc1C(=O)N1CCN(c2ccc(F)cc2)CC1)C(C)C | -6 | -4 | -10 | ? | 10 | 5 | -8 | .
CN(C)c1nc(N)c([N+](=O)[O-])c(NCCO)n1 | 1 | 2 | -10 | . | -6 | 6 | -10 | i
Cc1csc(NC(=O)c2ccc(COc3ccccc3)o2)n1 | 4 | -2 | 79* | -15 | 5 | 2 | -17 | i
CCOc1ccc(OCC)c(NC(=O)CCSCCc2ccccn2)c1 | -3 | 2 | -18 | 6 | 0 | 9 | -18 | i
CC1CC(CC(=O)NNc2nc(-c3ccccc3)cs2)C(=O)O1 (centres undefined) | 0 | 4 | 1 | 6 | 2 | 4 | -15 | i
COc1ccccc1OCCSc1nc(C)c(Cc2ccccc2)c(=O)[nH]1 | . | . | . | . | 7 | 5 | . | i
COc1ccc(N(CC(=O)NCc2ccc(Cl)cc2)S(=O)(=O)c2c(C)nn(C)c2C)cc1 | -1 | -2 | -14 | 16 | -12 | 0 | -5 | i
COC(C[C@@H]1O[C@@H]1[C@H](O)[C@H](C)OCc1ccccc1)OC | -3 | 5 | . | 1 | -13 | -9 | -18 | i
Cn1c(SCC(=O)Nc2ccc(NC(=O)c3ccccc3F)cc2)nnc1-c1ccncc1 | 1 | 2 | 12 | . | -2 | -2 | -17 | i
COc1ccc(NC(=O)CNC(=O)c2nn(-c3ccc(OC)c(OC)c3)c(=O)c3ccccc23)c(OC)c1 | -1 | 1 | 3 | 6 | 3 | -5 | -11 | i
CC(=N[C@@H]1CCCC[C@H]1N=C(C)c1ccccc1O)c1ccccc1O | 1 | 3 | -16 | -13 | -6 | -12 | . | i
COc1ccc(CCN2C(=S)N(C)C(=O)C2CC(=O)Nc2ccc(F)cc2)cc1 (centres undefined) | 5 | -5 | 61 | 30 | -2 | -4 | -18 | i
COCCNC(=O)C(c1cccs1)N(C(=O)Cn1nnc2ccccc21)c1ccc(OC)cc1 (centres undefined) | 2 | -7 | 5 | 5 | -15 | -1 | -1 | i
CCOC(=O)c1cc(-c2csc(Nc3c(C)cc(C)cc3C)n2)on1 | -3 | 0 | 11 | 4 | 13 | -8 | . | i
CCCOc1ccc(C=Nc2ccc(OC)c(S(=O)(=O)N3CCOCC3)c2)c(O)c1 | 3 | 1 | 17 | . | . | . | -10 | .
C=CCN(CC=C)Cc1ccc(C(=O)OC)o1 | -4 | 5 | -7 | . | 9 | 2 | -13 | i
N#Cc1ccc2nc3c(nc2c1)CCCC3 | 2 | 4 | . | -1 | 79 | -12 | -3 | i | eIF4H inh retest=-2;PABP FP inh retest=4
O=C1CCCN1CCCNS(=O)(=O)c1ccc(F)cc1F | 1 | 0 | 2 | -10 | -2 | 3 | -14 | i
O=S(=O)(c1ccccc1)C1CON(Cc2ccccc2)C1c1ccccc1 (centres undefined) | -1 | 1 | 9 | 0 | 12 | -3 | . | i
COc1ccccc1OCC(=O)NCCS(=O)(=O)N1CCN(c2ccccc2)CC1 | -2 | 4 | -9 | 7 | . | . | -13 | i
Cc1ccn2cc(C(=O)NC3CCN(Cc4ccccc4)CC3)nc2c1 | 0 | -1 | 21 | . | -2 | -3 | -11 | i
COC(=O)CSc1[nH]c2ccc(Br)cc2c1[N+](=O)[O-] | 6 | 9 | 16 | -110 | -3 | -6 | . | i
O=C(c1ccc(CNS(=O)(=O)c2ccc(Br)cc2)cc1)N1CCCCC1 | 1 | -1 | -4 | -4 | -7 | -2 | . | i
COc1ccc(OCCC(=O)N2CCOCC2)cc1 | 0 | 3 | 1 | 10 | 2 | 7 | -22 | i
O=C1C=C(NCc2ccco2)CC(c2ccc(Cl)cc2)C1 (centres undefined) | -4 | 0 | -9 | 34 | -2 | 2 | -7 | i
Cc1cc(Nc2ncc(Cl)cc2Cl)n(-c2ccccn2)n1 | 0 | 3 | . | -65 | 4 | 6 | -22 | i
Cc1cc(Cl)ccc1NC(=S)NCc1ccco1 | 0 | -2 | -7 | -13 | 6 | 30 | . | i
Cc1cc(OC(=O)N2CCCCC2)cc(C)c1Cl | -2 | -2 | 0 | . | -4 | -3 | -10 | i
S=C(NCc1ccccc1)Nc1cccc2ccccc12 | 1 | 3 | -3 | -73 | -5 | 11 | -23 | i
O=C(c1ccccn1)N1CCN(S(=O)(=O)c2ccc3ccccc3c2)CC1 | 6 | -3 | 3 | 4 | 13 | -10 | -6 | i
O=P(O)(O)C(O)C(F)(F)C(F)(F)C(F)(F)C(F)F (centres undefined) | -1 | -1 | -8 | -17 | 0 | -4 | -2 | i
Cc1ccccc1NC(=S)NCCc1ccccc1 | 0 | 2 | -3 | 25 | -4 | 14 | -19 | i
Cc1ccc(-c2ccccc2NC(=O)C2C3C=CC(C3)C2C(=O)O)o1 (centres undefined) | -8 | 6 | 8 | 4 | 15 | 14 | -7 | i
CC(C)C(NC(=O)c1c(F)cccc1F)C(=O)NC1CC(C)(C)NC(C)(C)C1 (centres undefined) | 1 | 5 | 3 | -13 | -12 | 4 | -12 | .
CC(=O)COc1nc2c(c(-c3ccco3)c1C#N)CCc1ccccc1-2 | . | . | 47 | . | -3 | -6 | . | i
O=C(O)c1cc(-c2cccs2)nn1-c1ccccc1 | 3 | 6 | -7 | 5 | -3 | 7 | -6 | i
O=C(NC1CCCCCC1)C(=S)NC1CCCCC1 | 0 | 5 | -3 | -11 | -14 | -2 | . | i
CN1/C(=C\C(=O)COC(=O)c2ccco2)C(C)(C)c2ccccc21 | 4 | 7 | -2 | -42 | 14 | -8 | -7 | i
COc1ccccc1C(=O)OCC(=O)N1CCC(Cc2ccccc2)CC1 | 1 | 0 | . | -1 | . | . | -10 | .
Cn1c(N)c(C(=O)CCl)c(=O)n(C)c1=O | 0 | 6 | -9 | -19 | -3 | 9 | -28 | i
N#C/C(=C\c1cn(Cc2cccc(F)c2)c2ccccc12)C(=O)NCc1ccco1 | 4 | -1 | 39 | 10 | -11 | -10 | . | i
CCN(CC)CCN1C(=O)C(=O)/C(=C(/O)c2ccc(Cl)cc2)C1c1ccncc1 (centres undefined) | 3 | 0 | . | 2 | 7 | 4 | . | .

Sorted by SMILES length (rising): 10 of the compounds above
SMILES | MT1-MMP act inh | MT1-MMP act inh RFP | CSC inhib | HIV Env fusion | eIF4H inh | PABP FP inh | Yeast UUG start | Rce1 inhib | others
O=C(NC1CCCCCC1)C(=S)NC1CCCCC1 | 0 | 5 | -3 | -11 | -14 | -2 | . | i
Cn1c(N)c(C(=O)CCl)c(=O)n(C)c1=O | 0 | 6 | -9 | -19 | -3 | 9 | -28 | i
O=C(O)c1cc(-c2cccs2)nn1-c1ccccc1 | 3 | 6 | -7 | 5 | -3 | 7 | -6 | i
O=P(O)(O)C(O)C(F)(F)C(F)(F)C(F)(F)C(F)F (centres undefined) | -1 | -1 | -8 | -17 | 0 | -4 | -2 | i
COc1ccccc1C(=O)OCC(=O)N1CCC(Cc2ccccc2)CC1 | 1 | 0 | . | -1 | . | . | -10 | .
CC(=O)COc1nc2c(c(-c3ccco3)c1C#N)CCc1ccccc1-2 | . | . | 47 | . | -3 | -6 | . | i
Cc1ccc(-c2ccccc2NC(=O)C2C3C=CC(C3)C2C(=O)O)o1 (centres undefined) | -8 | 6 | 8 | 4 | 15 | 14 | -7 | i
O=C(c1ccccn1)N1CCN(S(=O)(=O)c2ccc3ccccc3c2)CC1 | 6 | -3 | 3 | 4 | 13 | -10 | -6 | i
N#C/C(=C\c1cn(Cc2cccc(F)c2)c2ccccc12)C(=O)NCc1ccco1 | 4 | -1 | 39 | 10 | -11 | -10 | . | i
CC(C)C(NC(=O)c1c(F)cccc1F)C(=O)NC1CC(C)(C)NC(C)(C)C1 (centres undefined) | 1 | 5 | 3 | -13 | -12 | 4 | -12 | .

Further records.
SMILES | MT1-MMP act inh | MT1-MMP act inh RFP | CSC inhib | HIV Env fusion | eIF4H inh | PABP FP inh | Yeast UUG start | Rce1 inhib | others
COc1cc(C(=O)NCC(=O)N/N=C(/C)c2ccc3c(c2)CCCC3)cc(OC)c1OC | 0 | -3 | -5 | -63 | -8 | -12 | -17 | i
O=C(c1cc(COc2cccc(C(F)(F)F)c2)on1)N1CCc2ccccc2C1 | 0 | 6 | 26 | -6 | -4 | 7 | -22 | i
COc1ccccc1N(Cc1cc(=O)[nH]c2ccccc12)C(=O)c1ccc([N+](=O)[O-])cc1 | 3 | 2 | -7 | -6 | -7 | 4 | -11 | i
CCOC(=O)N1CCN(C(=O)CN(Cc2ccc(Cl)cc2)S(=O)(=O)c2ccc(C)cc2)CC1 | 1 | -1 | -7 | 23 | -4 | 0 | . | i
COc1ccc(CN(C)C(=O)CNC(=O)c2sc3ccccc3c2Cl)c(OC)c1OC | 5 | -7 | . | 28 | . | . | -26 | .
COc1cccc(/C=N/n2c(-c3ccco3)nc3ccccc3c2=O)c1OC | 1 | 3 | 4 | . | 2 | 4 | . | i
NC(=O)NC(=O)COC(=O)c1ccc(OC(F)(F)F)cc1 | -1 | 3 | -8 | -19 | -2 | -1 | . | i
CCN(CC(=O)NC(=O)NC1CCCCC1)Cc1nc2ccccc2c(=O)[nH]1 | -4 | -5 | . | . | 0 | -7 | . | i
COCCCn1c(SCc2nc3ccccc3c(=O)[nH]2)nc2ccccc2c1=O | -5 | -9 | -15 | ? | 11 | 0 | -9 | i
O=C(CNC(=O)c1cccs1)NCCN1CCN(Cc2ccccc2)CC1 | 2 | -2 | -8 | . | -9 | 0 | -37 | i
CCC/C(=N/NC(=O)c1cccc(Cl)c1)c1ccccc1 | 4 | 6 | 16 | 7 | -2 | 31 | 0 | i
COc1cccc(/C=N/n2c(-c3cccs3)n[nH]c2=S)c1 | -2 | 2 | -8 | . | -7 | 5 | -25 | i
O=C1CCN(CCCc2ccccc2)CCN1CCO | -2 | 7 | 2 | 4 | -11 | -10 | -15 | i
Cc1ccc(Cl)cc1-c1ccc(C=Nc2ccc(N3CCOCC3)cc2)o1 | 8 | 9 | -14 | -16 | -10 | -9 | . | i
C=CCn1cc(C(=O)NCc2ccco2)c(=O)c2cc(S(=O)(=O)N3CCCCCC3)ccc21 | -10 | -8 | 20 | -42 | 1 | -3 | -13 | i
Cc1ccc(C(C(=O)NC2CCCCC2)N(CCCN2CCOCC2)C(=O)c2snc(C(N)=O)c2N)cc1 (centres undefined) | 1 | 4 | 0 | -1 | 5 | -3 | -5 | .
O=C(/C=C/Nc1cccc([N+](=O)[O-])c1)c1cccs1 | -7 | 2 | -15 | -152 | 13 | 17 | -41 | i
